NPYLR7 agonist = mosquito NPYLR7 agonism | HEK293T NPYLR7/Galpha15, GCaMP6s calcium fluorescence | activation, % at 10 µM | hit rate 0.15% among 270,000; in the data active = activation above about 40%;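 also: 0% = vehicle and 100% = reference agonist at the receptor; some compounds past the cut are filed as inactive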
NPYLR7 agonist max-min = further read-out of NPYLR7 agonist, marked with its call; activation, %; measured here: Max-Min RFU normalised activation; some inactives read as strong as hits;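 span of the calcium signal over five minutes; 0% = vehicle and 100% = native peptide agonist; compound fluorescence can raise it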
* hit, by the source's call. A portion of the library; count on the stated rates, not on these rows.

nr	structure	NPYLR7 agonist max-min	NPYLR7 agonist
1	CCOC(=O)c1ccc(N=c2scc(-c3ccccc3)n2CCNC(C)=O)cc1	-3.2	1.3
2	COc1cccc(OCc2ccccc2)c1C(=O)NC[C@@H]1CCCO1	-12.5	-6.2
3	COc1ccccc1N(CN1CCCC1=O)C(=O)c1c(F)cccc1F	7.1	18.5
4	CCOC(=O)c1c(C)[nH]c(C)c1C1=NNC(=NCC2CCCO2)SC1 (stereo unspecified)	4.2	-1.8
5	COC(=O)[C@@H]1C[C@@H](NC(=O)c2cccc(-c3noc(C)n3)c2)CN1C	18.5	29.0
6	O=C(c1ccco1)N1C[C@H](Oc2ccccn2)[C@H]2C[C@@H]1CC[C@H]2N1CCOCC1	35.5	28.2
7	Cc1ccsc1CN(CCO)C(=O)c1ccc2c(c1)CCCO2	-2.0	-0.7
8	CCc1cc(C(=O)N2CCC(C3(Cc4cccc(F)c4)NC(=O)N(CC(C)C)C3=O)CC2)no1 (stereo unspecified)	7.2	15.3
9	CN(CCOc1ccc(S(N)(=O)=O)cc1)c1ccc2ccccc2c1	2.6	4.3
10	CN1CCN(c2nc3ccccc3s2)CC1C(=O)O (stereo unspecified)	0.7	4.5
11	CCCN(Cc1c(-c2ccccc2)noc1N1CCOCC1)CC(O)Cc1ccccc1 (stereo unspecified)	8.6	3.3
12	O=C(c1cccc([N+](=O)[O-])c1)N1CCN(c2nc(Cc3ccccc3)nc3cc(Cl)ccc23)CC1	20.2	19.3
13	Cc1cc(C(=O)N2CCCC(C(=O)c3ccc4c5c(cccc35)CC4)C2)nn1C (stereo unspecified)	3.5	15.7
14	CC1CCc2c(sc(N)c2C(=O)NC2CCS(=O)(=O)C2)C1 (stereo unspecified)	0.1	1.5
15	CCOc1ccc(C(=O)Nc2c(C)nc3cc(C)ccn3c2=O)cc1	1.7	3.2
16	CC(C)(Cc1ccccc1)NC(=O)c1cnn(-c2cccc(Cl)c2Cl)c1N	7.3	0.4
17	COc1ccc(-c2cc(CN)no2)cc1OC	2.5	4.7
18	CCOC(=O)c1sc2nc(CN(Cc3ccccc3)CC(O)CN3CCOCC3)[nH]c(=O)c2c1C (stereo unspecified)	-2.3	-7.5
19	CCOC(=O)Cc1csc(/C(=N\O)C(N)=O)n1	-3.6	-5.1
20	CC1(Cc2ccc(Cl)s2)C(=O)Nc2ccc(S(=O)(=O)NC3CCCCC3)cc21 (stereo unspecified)	4.8	-0.4
21	CC(C(N)=O)N1CCc2nnc(CCc3ccccc3)n2CC1 (stereo unspecified)	-9.4	9.9
22	CCOCCOC1CCCN(C(=O)c2ccccc2Cl)C1 (stereo unspecified)	-4.5	-8.5
23	COc1cccc(CCC(=O)N(C)C2CCCN(C3Cc4ccccc4C3)C2)c1 (stereo unspecified)	1.7	2.5
24	Nc1ccc2oc(-c3cccc(-c4nc5cc(N)ccc5o4)n3)nc2c1	-0.6	-0.6
25	Cc1nc2c(C)cccn2c(=O)c1NC(=O)C1CCCCC1	1.1	4.4
26	O=C1/C(=C/c2ccc(-c3ccccc3Cl)o2)NC(=S)N1c1ccccc1	17.3	6.1
27	Cc1cccc(NC(=O)CC(=O)N(C)Cc2cccc(-n3cccn3)c2)c1C	-13.1	-9.4
28	COc1cc(Br)c(/C=C2/C(=O)N(c3ccc(Cl)c(Cl)c3)N=C2C)cc1OC	16.1	9.8
29	CCc1ccc(N2CCCn3c2nc2c3c(=O)[nH]c(=O)n2C)cc1	18.8	3.7
30	Cc1cccc(CCNC(=O)c2cc(S(=O)(=O)NC(C)C)c[nH]2)c1	-6.2	-3.8
31	CNc1cncc(-c2cc(C)c(O)c(C)c2)n1	-1.1	-0.4
32	CC(C)CC(CCO)CNC(=O)c1ccccc1Cc1ccccc1 (stereo unspecified)	1.7	2.8
33	COCCN1CCCC2(CCN(Cc3ccccc3OC(F)F)C2)C1 (stereo unspecified)	8.6	16.8
34	CCCCNc1ccc2nnc(CCNC(=O)c3ccccc3)n2n1	-15.5	-5.2
35	CC1=NC2=C(C(=O)CC(C)(C)C2)C(c2ccccc2[N+](=O)[O-])C1C#N (stereo unspecified)	1.7	4.0
36	Cc1cc(=O)c(C(=O)N2CC(C)OC(c3ccccc3)C2)c[nH]1 (stereo unspecified)	-3.4	0.6
37	Cc1cc(C)c(S(=O)(=O)N2CCN(S(=O)(=O)c3cc(C)c(C)cc3C)C(C)C2)cc1C (stereo unspecified)	-10.6	-7.4
38	N#Cc1ccc(CNc2ccccc2Br)cc1	-2.8	1.0
39	O=C(NC1CCC(c2ccccc2)CC1)c1ccc(=O)[nH]c1 (stereo unspecified)	3.7	4.7
40	Cc1cccc(OCC(=O)Nc2cc(C)nn2-c2ncnc3c2cnn3-c2cccc(C)c2C)c1	3.5	4.0
41	Cc1ccc(CC2(NC(=O)c3cnc(C4CC4)[nH]c3=O)CC2)cc1	-5.9	1.6
42	O=C(Cn1cnc(-c2ccccc2)cc1=O)N1CCN(c2ccccc2)CC1	-7.6	-5.4
43	CCCC(C)c1nnc(NC(=O)Cc2cn3ccsc3n2)s1 (stereo unspecified)	11.2	-1.0
44	Cn1nc(C(=O)N(CC(=O)OC(C)(C)C)c2ccccc2)ccc1=O	4.8	7.1
45	Cc1ccc(CN(C)Cc2ccc3cccc(O)c3n2)o1	5.9	7.1
46	Cc1ncsc1CCOC(=O)C12CC3CC(CC(C3)C1)C2	4.2	5.5
47	O=S(CC1CCCCO1)c1nnc(NCC(F)(F)F)s1 (stereo unspecified)	114.6	-1.1
48	Cc1ccc(S(=O)(=O)c2c(C)nn(C(C)(C)C)c2OC(=O)COc2ccccc2)cc1	36.0	1.7
49	COC(=O)C1CSCC(c2ccccc2)N1Cc1c(C)noc1C (stereo unspecified)	19.9	-0.7
50	CC(C)Oc1ccc(NC(=O)C(C(C)C)n2cccc2)cc1 (stereo unspecified)	4.4	10.8
51	Cc1nc2ccc(N(C)C(=O)c3cccc4c3OCCO4)cc2[nH]1	5.2	5.3
52	Cc1ccc(C(NC(=O)C2CCN(C3Cc4ccccc4C3)CC2)c2ccccn2)cc1 (stereo unspecified)	7.0	4.0
53	O=C(NCCc1ccc(F)cc1)c1ccccc1NS(=O)(=O)c1cccc(OC(F)(F)F)c1	-4.9	0.0
54	Cc1ccc(-c2nnc(SCc3ccc(C(=O)NCc4ccncc4)cc3)n2-c2cccc(C)c2)cc1	21.6	17.7
55	CCCCOC(=O)NNOC(=O)CCCC	-1.3	-1.1
56	C=CCSc1ccccc1NC(=O)CSc1ncc(C#N)c(N)n1	11.5	13.0
57	CC(C)CSc1nc2c(c(=O)[nH]c(=O)n2C)n1Cc1ccccc1Cl	14.4	9.6
58	O=C1OC(c2ccc3c(c2)OCO3)=NC1=Cc1ccccc1Cl	-5.3	0.0
59	CC1CCCC(NC(=O)c2cc(N3CCN(Cc4ccccc4)CC3)nc3ccccc23)C1C (stereo unspecified)	5.9	15.0
60	CCOc1ccc(C(C)C)cc1S(=O)(=O)NCCCn1ncccc1=O	-8.3	-7.6

(more compounds)
nr	structure	NPYLR7 agonist max-min	NPYLR7 agonist
61	CC(C)CN1CC(C(=O)NCc2csc(N(C)C)n2)CC1=O (stereo unspecified)	1.8	4.2
62	CCOC(=O)Nc1ccc(C(=O)Nc2ccc3c(c2)OCCO3)cc1	10.8	14.3
63	C=C1C(C)(C)[C@H]2CC[C@]1(C(=O)N1CCCn3nc(C(=O)OC)cc3C1)C2	0.6	2.4
64	COc1ccc(-c2cc(N)n(-c3ccc(C(=O)NC(C)CC(C)C)cc3)n2)cc1 (stereo unspecified)	-14.0	-7.1
65	Cn1cc(CN2CCC(C(O)(c3ccccc3)c3ccccc3)CC2)cn1	-5.7	-4.3
66	CC(C)NC(=O)Nc1ccc(CNC(=O)CCC(=O)c2ccc(F)cc2)cc1	-13.8	-6.9
67	CN(C)c1ccc(C=NNc2ccc(F)cc2F)cc1	4.0	5.1
68	C#CCOc1cc(Br)c(CNCCO)cc1OC	-8.2	-5.3
69	CN(Cc1ccccc1)Cc1cc(C(=O)N2CCS(=O)(=O)CC2)no1	5.8	6.2
70	COc1ccc(CNC(=O)c2ccc(-c3cc(-c4cccc(C(F)(F)F)c4)n[nH]3)cc2)cc1	12.0	23.4
71	Cc1oc(-c2ccccc2)nc1C(=O)NCC1CCCCC1	3.6	3.7
72	CCCOCCNC(=O)c1cc(N2CCN(c3cccc(C(F)(F)F)c3)CC2)nc2ccccc12	1.4	8.9
73	COc1ccc(-c2ccc(C(=O)NC(C)C)c3occc23)c(C)c1	-3.8	0.5
74	Cc1ccccc1NC1=NC2(N=C(N)N1)C(=O)N(C)c1ccccc12 (stereo unspecified)	-13.0	-9.8
75	OCc1cc(-c2cccc(C(F)(F)F)c2)ccn1	0.6	-2.4
76	O=C(CNC(=O)C1CCCCC1)Nc1cccc2cccnc12	-0.3	-2.2
77	COc1ncccc1-c1cccc(N2CCNCC2)n1	-4.3	0.5
78	COc1ccc(CCNC(=O)c2csc(CSc3nnc(C)n3-c3ccccc3C)n2)cc1OC	10.3	-0.5
79	c1ccc(CSc2nn3cnnc3s2)cc1	1.1	8.5
80	CCOCCCNC(=O)c1cc(NC(=O)C(Cl)c2ccccc2)ccc1N1CCN(c2ccccc2OC)CC1 (stereo unspecified)	-5.6	-9.0
81	Cc1nn(-c2ccccc2)c(-c2ccccc2)c1C(=O)NCc1ccccn1	12.0	3.2
82	CCc1nc2ccc(C(=O)N3CCN(S(=O)(=O)CC)CC3)cn2c1N(CC)C(=O)NCCc1ccccc1	-11.4	-3.7
83	O=C(Nc1ccc2c(c1)COC2)c1ccccc1C1CCNC1 (stereo unspecified)	-0.4	6.3
84	Cc1cc(C)c2c(CC(=O)N3CCn4c(C(N)=O)cnc4C3)coc2c1C	-6.1	-2.7
85	CC(=O)N1CCN(C(C)C(=O)Nc2cc(Cl)ccc2Cl)CC1 (stereo unspecified)	-8.9	-6.4
86	CCc1nc2ccc(C(=O)NCc3ccc(OC)cc3)cn2c1N(C)Cc1cccs1	-6.9	6.8
87	CNc1ccc(OCC(O)CNS(=O)(=O)c2ccc(C)cc2)cc1 (stereo unspecified)	4.9	4.5
88	Cc1ccccc1-n1c(SCC(=O)NCc2ccccc2)nnc1-c1ccco1	9.0	-2.3
89	Cc1ccsc1CN(Cc1ccc(F)cc1)C(=O)CN(CCN1CCOCC1)C(=O)Nc1ccc(Br)cc1	14.4	7.7
90	O=C(Cc1cc(Cl)ccc1Cl)NCCc1ccccn1	-25.9	-19.9
91	Cc1ccc2nc(-c3ccccc3F)c(NC(=O)C(C)C)n2c1	-2.4	-5.4
92	Cn1cc([N+](=O)[O-])c(C(=O)Nc2nc3ccc([N+](=O)[O-])cc3s2)n1	7.4	-1.3
93	Cc1cccc2sc(N(CCN3CCOCC3)C(=O)c3ccc(C#N)cc3)nc12	2.4	9.1
94	O=c1c2ccc(-c3cccnc3)nc2[nH]n1-c1ccccc1	0.5	-2.1
95	Fc1ccc(Br)c(CSc2nncs2)c1	0.7	10.7
96	COc1ccc(-n2c(CCC(=O)NCCc3cccs3)cc3c2-c2ccccc2CC3)cc1	-6.5	-2.9
97	COc1ccccc1OCC(=O)NCC1CCCN(C(=O)Cc2ccccc2C)C1 (stereo unspecified)	1.4	3.9
98	CC(C)NC(=O)Nc1ccc(Oc2cccc(F)c2)nc1	-6.5	-6.0
99	O=c1cc(C(F)(F)C(F)F)oc2ccccc12	-0.8	1.7
100	C=CCn1c(CSc2nc3ccccc3s2)nnc1SCC(=O)NCCO	-9.9	-4.9
101	COc1cccc(C(=O)N2CCCN(c3nc(Cc4ccc(C)cc4)nc4onc(-c5cccnc5)c34)CC2)c1	6.3	15.7
102	CCOc1cc2c(c(C3NC(=O)c4c(C)cccc4N3)c1)OC(C)C2 (stereo unspecified)	-9.2	-10.2
103	Cn1c(=O)c2ccc(C(=O)NC3CCCCC3)cc2n2c(=O)n(CC#N)nc12	-1.8	0.1
104	CCCCNC(=S)N=Nc1c(O)n(C)c2ccccc12	-10.2	-4.0
105	COc1ccccc1NC(=O)Nc1ccc(N2CCC(C)CC2)c(C(=O)NCCc2ccccc2)c1	28.7	20.3
106	Cc1nc(CN(CCC#N)CC2CC2)no1	9.0	19.7
107	Cc1cc(=O)n2[nH]cc(-c3ccc(F)cc3)c2n1	-22.3	-14.3
108	COc1ccc(NC(=O)N(CC(=O)N2c3ccccc3-n3cccc3C2c2ccc(F)cc2)C2CC2)c(OC)c1 (stereo unspecified)	18.3	18.6
109	CN(C)C(=O)c1ccc2c(c1)N(C)C(CC(=O)NCCn1ccnc1)CO2 (stereo unspecified)	2.2	5.1
110	O=c1c2ccccc2c(C=Nc2nncs2)c(O)n1-c1ccccn1	42.6	25.0
111	O=C(Cc1cc(-c2cc3ccccc3o2)on1)Nc1nccs1	6.8	3.7
112	CC(C)Cn1c(-c2cccc([N+](=O)[O-])c2)nc(=S)c2c1CCCC2	-7.9	-4.2
113	O=C(Nc1nnc(C2CC2)s1)C12CC3CC(CC(Cl)(C3)C1)C2	48.0	-0.1
114	COc1ccc(CCNC(=O)c2ccccc2N2CCC(NC(=O)c3ccc(Br)cc3)CC2)cc1	14.1	17.8
115	FC(F)(F)c1nn2cc(-c3ccccc3)nc2s1	-3.2	-0.6
116	COc1cc(C(=O)Nc2ccccc2)cc(OC)c1C	-0.4	0.5
117	CC(C)COC(=O)N1CCC(=O)N(C)c2ccccc2C(OCC(N)=O)C1 (stereo unspecified)	5.8	3.1
118	Clc1ccc(CNc2ccn3nccc3n2)cc1	1.1	3.6

Nos. 115 through 118 from above:
nr	structure	NPYLR7 agonist max-min	NPYLR7 agonist
115	FC(F)(F)c1nn2cc(-c3ccccc3)nc2s1	-3.2	-0.6
116	COc1cc(C(=O)Nc2ccccc2)cc(OC)c1C	-0.4	0.5
117	CC(C)COC(=O)N1CCC(=O)N(C)c2ccccc2C(OCC(N)=O)C1 (stereo unspecified)	5.8	3.1
118	Clc1ccc(CNc2ccn3nccc3n2)cc1	1.1	3.6

Screens: PubChem, Fisher Drug Discovery Resource Center
